Compound activity: PubChem, National Center for Advancing Translational Sciences (NCATS)
N370S GC mod – inhibits or activates N370S mutant glucocerebrosidase | actives 0.092% (n = 330,000) | P04062 | Potency, µM (titrated, usually from 59.4 µM), without a hit: at the top dose activity change, negative = inhibition, actives largely listed as inhibitors | N370S GC spleen homogenate, 4MU-glucoside fluorescence; active = well fitted inhibition curve with a large enough effect; inconclusive = small, poorly fitted or top-dose-only effect, or effect the other way, or another doubt; inactive = no such curve, though single readings can be large or run the other way;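 also: 0% = full enzyme activity and -100% = no enzyme basal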
Numbers without * were called inactive; ? = inconclusive; & = joins results of further samples. Potency is read from the fitted curve at half-maximal effect.

SMILES	N370S GC mod
CCSC1=N/C(=C\c2ccc3c(c2)OCO3)C(=O)S1	24.2%
Cc1ccc(CCNC(=O)c2nc(CS(=O)(=O)c3ccc(Cl)cc3)no2)cc1	-2.4%
COCCN(C(=O)CN1CCN(S(=O)(=O)c2ccc(F)cc2)CC1)c1c(N)n(Cc2ccccc2)c(=O)[nH]c1=O	5.2%
O=C(COC(=O)[C@@H]1CCCN1S(=O)(=O)c1ccccc1F)c1ccccc1	1.5%
Cc1cccc(N2CCN(S(=O)(=O)c3c(C)nc4scc(C)n4c3=O)CC2)c1C	-7.9%
O=c1oc2ccccc2c(O)c1Cc1cc(Cl)c2cccnc2c1O	-13.1%
COc1ccc(C)cc1N(CC(=O)Nc1cccnc1)S(=O)(=O)c1ccccc1	-1.5%
CCCCCCCC[n+]1cccc2c3ccccc3ccc21	-11.9%
CCOc1ccc(C(C)(O)CN2CCOCC2)cc1 (stereo not given)	-10.4%
COc1ccc2ccccc2c1C1CC(=O)N2CN(C)CSC2=C1C#N (stereo not given)	-3.8%
C=CCn1c(SC2CCOC2=O)nc2sc(C)c(C)c2c1=O (stereo not given)	4.9%
Nc1nc2n(n1)C(c1cccc(Cl)c1)CC(c1ccc(F)cc1)N2 (stereo not given)	-24.1%
COC(=O)c1ccccc1NC(=O)CN1CCC(n2nnc3cc(F)ccc32)CC1	-3.0%
CC(=O)OCC1=C(C(=O)O)N2C(=O)C(NC(=O)CCn3nc(C(F)(F)F)c(Br)c3C3CC3)C2SC1 (stereo not given)	-19.3%
O=S(=O)(CCc1ccncc1)C1Cc2cccc3cccc1c23 (stereo not given)	-4.8%
COc1cc(OC)c(C2SCCCS2)cc1OC	1.5%
COC(=O)Cc1c(C)nc2nc(-c3ccc(OC)cc3)[nH]n2c1=O	4.7%
Cc1ccc(/C=C2\SC(=S)N(CCCC(=O)Nc3nccs3)C2=O)cc1	4.8%
COCCn1c(SCC(=O)Nc2sccc2C(N)=O)nnc1-c1ccncc1	-6.3%
C/C(=N\NC(=O)c1ccc(C)cc1C)c1ccc2c(c1)OCO2	0.1%
CCOC(=O)c1sc(=S)n(C)c1NC(=O)c1ccccc1C	-6.9%
Cn1cc(CN2CCN(c3ccccc3)CC2)c2ccccc21	-6.1%
O=C(CCc1ccccc1)Nc1cc(Cl)ccc1O	5.9%
CCc1cc(Br)ccc1N1C(=O)C2CC=CCC2C1=O (stereo not given)	7.6%
COc1ccc(CCNC(=O)CN2C(=O)COc3ccc(S(=O)(=O)N4CCOCC4)cc32)c(OC)c1	0.3%
CC(C)CSc1n[nH]c(N)n1	8.2%
CCOC(=O)Cc1csc(NC(=O)COc2ccc3c(c2)CCC3)n1	0.5%
COc1ccc(CNc2ccc(N3CCOCC3)cc2)cc1	-1.8%
O=C(O)CN1C(=O)C2C3CC(C2C1=O)C1C(c2ccc(Cl)cc2)c2sc(=O)[nH]c2SC31 (stereo not given)	7.2%
O=C(CCS(=O)(=O)c1ccccc1)Nc1nncs1	-3.2%
COc1ccc(N(CC(=O)NCCc2ccc(Cl)cc2)S(=O)(=O)c2c(C)[nH]c(=O)[nH]c2=O)cc1	?
COc1ccc(S(=O)(=O)NCC(c2cccnc2)N2CCN(C)CC2)cc1C (stereo not given)	2.1%
Cc1cccnc1CC(C)NC(=O)c1cc(COc2cncc(Cl)c2)on1 (stereo not given)	5.7%
COc1ccc(CC2(CO)CCN(S(=O)(=O)N(C)C)CC2)cc1	-0.7%
O=C(O)Cn1cnc2c(=S)nc[nH]c21	1.3%
COc1ccccc1NCC(=O)NNC(C)C(=O)Nc1cccc(Cl)c1 (stereo not given)	1.9%
O=C(O)c1ccc2c(c1)C(=O)N(c1cccc(S(=O)(=O)Nc3cccc(C(F)(F)F)c3)c1)C2=O	-2.9%
CC1=C(C(=O)Nc2ccccc2C)C(c2cccs2)NC(=S)N1 (stereo not given)	-0.8%
CCC(C(=O)OC)n1cnc2c(nnn2-c2cccc(Cl)c2)c1=O (stereo not given)	10.1%
CCOc1nc2cnccc2n(CC(=O)Nc2ccccc2C(=O)OC)c1=O	-2.7%
Cc1ccccc1/C=C/C(=O)c1ccc([N+](=O)[O-])o1	-27.4%
CCn1ccnc1CN(C)C(=O)c1ccc(OC2CCN(CCc3ccccc3)CC2)cc1	15.8%
O=C(Cc1csc(N2CCOCC2)n1)N/N=C/c1ccccc1C(=O)O	24.5%
CC(=O)C1=C(C)N(Cc2ccccc2)C(=O)N[C@H]1CCc1ccccc1	2.5%&10.6%
CN(C)/C=C1\C(=O)Nc2ccccc21	1.2%
N#CC1CN(C(c2ccccc2)c2ccccc2)C1	6.1%
CC(C)c1ccc2c(c1)CC[C@H]1[C@](C)(CN)CCC[C@]21C	?
COC(=O)c1sc2cc(=O)n(-c3cccc(C(F)(F)F)c3)nc2c1O	-0.9%
C=CCc1c(C)nc2c(C)cccc2c1SC(=N)N	-8.6%
COc1cc2c(cc1OC)CN(CC(O)c1ccccc1)CC2 (stereo not given)	-3.2%
CCOC(=O)Cn1nc(C)n(-c2ccccc2)c1=O	-12.4%
O=C(NC1CC2CCC(C1)N2C(=O)NC1CCCCC1)NC12CC3CC(CC(C3)C1)C2 (stereo not given)	10.1%
COc1cccc(NC(=O)Cn2nnc(C(=O)NCc3ccc4c(c3)OCO4)c2N)c1	6.4%
CCOC(=O)CSc1nc2ccccc2c(=O)n1C	25.4%
O=C(NCCO)c1cc2ccccc2c(=O)s1	?
N/C(Cc1ccc([N+](=O)[O-])cc1)=N\OC(=O)c1ccco1	3.4%
O=C(CSc1cccc[n+]1[O-])NCCCc1ccccc1	2.9%
CN1/C(=C\C(=O)COC(=O)c2ccccc2O)C(C)(C)c2ccccc21	1.7%
Cc1ccc(CC(=O)N2CC(C)OC(C)C2)cc1 (stereo not given)	-3.7%
C/C(=N\NC(=O)CNc1ccccc1Cl)C(C)(C)C	4.9%

Following part:
SMILES	N370S GC mod
COc1cc2ccccc2cc1C(=O)N(CCN(C)C)c1nc2ccc(Br)cc2s1	-18.0%
Cc1nc(NC(=O)COC(=O)C2=NNC(=O)CC2)c(Cl)cc1Cl	-1.6%
Cn1c2ccccc2c2nnc(NN)nc21	-18.9%
COC(=O)[C@H](Cc1ccccc1)NC(=O)[C@@H]1C[C@H]1[C@@H](NC(=O)OCc1ccccc1)c1ccccc1	-3.8%
COc1cccc(O[C@@H]2O[C@@H]3COC(C)(C)O[C@H]3[C@H](O)[C@H]2NC(C)=O)c1	25.5%
CCNC(=O)NC(=O)C(C)Oc1ccc(C(=O)OC)cc1 (stereo not given)	6.2%
C/C=C/c1ccc(OCCCn2cncn2)c(OC)c1	-12.4%
CC(/C=C1\SC(=O)N(CCCC(=O)O)C1=O)=C\c1ccccc1	-8.5%
CCc1ccc(NC(=O)NC2CCCCCCC2)cc1	26.9%
COC(=O)c1ccc(CN2CCC(CO)(Cc3ccccc3Cl)CC2)cc1	0.3%
CC(C)c1csc(CN2CCN(Cc3ccc(F)c(F)c3)C(CCO)C2)n1 (stereo not given)	-0.7%
O=c1c(F)cn(C2CCCO2)c(=O)n1Cc1ccccc1F (stereo not given)	0.0%

The final 4 compounds of the section before lead into the next.
SMILES	N370S GC mod
CCc1ccc(NC(=O)NC2CCCCCCC2)cc1	26.9%
COC(=O)c1ccc(CN2CCC(CO)(Cc3ccccc3Cl)CC2)cc1	0.3%
CC(C)c1csc(CN2CCN(Cc3ccc(F)c(F)c3)C(CCO)C2)n1 (stereo not given)	-0.7%
O=c1c(F)cn(C2CCCO2)c(=O)n1Cc1ccccc1F (stereo not given)	0.0%
O=C(C1CCCCC1)N1CCN(S(=O)(=O)c2ccc(Br)cc2)CC1	-14.8%
Cc1ccc(C(=O)N(CC(C)C)c2c(N)n(Cc3ccccc3)c(=O)[nH]c2=O)o1	1.0%
Cc1nccn1Cc1cccc2ccccc12	6.0%
Cc1cc(/C=N/n2cnnc2)c(C)n1-c1cc(Cl)ccc1Cl	-3.2%
CC12CS(=O)(=O)CC1SC(=S)N2c1ccccn1 (stereo not given)	0.2%
O=c1cc(CSc2nc3cc(Cl)ccc3o2)nc2sccn12	-2.1%
COc1ccc(N)cc1-n1cnnn1	-3.9%
CCOC(=O)C(NC(=O)CC)(Nc1ccc(S(=O)(=O)Nc2onc(C)c2C)cc1)C(F)(F)F (stereo not given)	-3.4%
COc1cccc(-c2c(NC(=O)c3ccco3)n(-c3ccc(C)cc3)nc(C)c2=O)c1	-0.2%
COc1cc(/C=N/NC(=O)Nc2ccccc2)ccc1OCCOc1ccccc1C	7.4%
COc1ccc(CNC(=O)CCNS(=O)(=O)c2ccc(Cl)cc2)cc1	-2.5%
CC(C)C(=O)Nc1nnc(SCC(=O)N2c3ccccc3CC2C)s1 (stereo not given)	2.0%

Two consecutive records already listed, quoted:
SMILES	N370S GC mod
COc1ccc(CNC(=O)CCNS(=O)(=O)c2ccc(Cl)cc2)cc1	-2.5%
CC(C)C(=O)Nc1nnc(SCC(=O)N2c3ccccc3CC2C)s1 (stereo not given)	2.0%

More results:
SMILES	N370S GC mod
CC1CN(C2CCN(C(=O)c3ccccc3Cl)CC2)CC(C)O1 (stereo not given)	-0.6%
CC(C)Sc1ncnc2c1oc1ccccc12	28.8%
C[C@H](NC(=O)N1CCn2c1nc1ccccc12)C(=O)NCc1ccc2c(c1)OCO2	7.6%
COc1ccc(/C=C(/NC(=O)c2ccccc2)C(=O)N2CCCC2)cc1	-0.4%
COc1ccc(/C=C/C(=O)NCC(=O)N/N=C/c2cccnc2)cc1	-3.8%
C=C(C)CN=c1scc(C)n1/N=C/c1ccco1	10.4%
CC(=O)c1ccc(OCc2cc(C(=O)N3CCC(Oc4ccccc4C)CC3)no2)cc1	-1.4%
Cc1ccc2nc(SCC(=O)Nc3cccc(F)c3)nc(=O)n2c1	-19.4%
COc1ccc(N2C(=O)c3cccc4cccc(c34)C2=O)nn1	1.9%
Cc1ccc(S(=O)(=O)Nc2cccc(Oc3cnccn3)c2)cc1	5.9%
COC(=O)C1=NNC2(c3ccc(C)cc3)C(=O)N(c3ccc(C)cc3)C(=O)C12 (stereo not given)	6.4%
CC(OC(=O)c1cc(=O)[nH]c2ccccc12)C(=O)NC1CCCCC1C (stereo not given)	-5.8%
Cc1ccc(-c2nc(CSCC(=O)N3CCN(C(=O)c4ccco4)CC3)c(C)o2)cc1	6.1%
Cc1cc(S(=O)(=O)NCc2ccccc2)ccc1OCC(=O)NCc1ccncc1	-2.5%
Cc1ccc(C(C)C)c(OCC(=O)NNC(=O)C2CSC3(C)CCC(=O)N23)c1 (stereo not given)	-3.5%
CSc1nc2sc3c(c2c(=O)[nH]1)CCC(C)C3 (stereo not given)	3.7%
O=C(O)c1ccc(Cn2cnc3scc(-c4ccccc4)c3c2=O)cc1	-6.4%
CCOC(=O)CC(c1ccc([N+](=O)[O-])cc1)n1c(C)ccc1C (stereo not given)	0.1%
O=C(Nc1ccccc1NC(=O)c1csnn1)c1csnn1	-16.1%
Cn1nnc(NC(=S)NC(=O)c2ccccc2)n1	-6.5%
CCOC(=O)CN1C(=O)S/C(=C/c2ccc(C)o2)C1=O	0.9%
Cc1noc(C)c1CSCC(=O)Nc1nc2ccc(F)cc2s1	-13.3%
COc1cccc(NC(=S)N/N=C2\CC3CCC2(C)C3(C)C)c1 (stereo not given)	28.3%
OC1(c2ccc(F)cc2)CN(c2ccccc2)C2=[N+]1CCS2 (stereo not given)	12.8%

Of the compounds above, these contain bromine.
SMILES	N370S GC mod
CC(=O)OCC1=C(C(=O)O)N2C(=O)C(NC(=O)CCn3nc(C(F)(F)F)c(Br)c3C3CC3)C2SC1 (stereo not given)	-19.3%
CCc1cc(Br)ccc1N1C(=O)C2CC=CCC2C1=O (stereo not given)	7.6%
COc1cc2ccccc2cc1C(=O)N(CCN(C)C)c1nc2ccc(Br)cc2s1	-18.0%
O=C(C1CCCCC1)N1CCN(S(=O)(=O)c2ccc(Br)cc2)CC1	-14.8%

Later entries:
SMILES	N370S GC mod
CCOC(=O)Nc1sc2c(c1C#N)CCCC2	10.7%
Cc1ccccc1S(=O)(=O)Cc1ccc(C(=O)NCc2ccco2)o1	-1.8%
NC(=O)c1c(NC(=O)CSc2nc3c(c(C(F)(F)F)n2)CCc2ccccc2-3)sc2c1CCCC2	2.1%
COc1ccc2c(c1)O[C@H](c1ccc3c(c1)OCO3)[C@@H](OC(=O)N[C@H]1CCCc3ccccc31)C2=O	1.1%&9.0%
CCN(CC)CCOC(=O)C1(c2ccc(OC)c(OC)c2)CCCC1	0.2%
COc1ccc(C2=NN(C(=O)/C=C/c3ccccc3)C(c3ccccc3)C2)c(OC(C)=O)c1 (stereo not given)	23.5%
CC(C(=O)N(C)C1CCS(=O)(=O)C1)N1C(=O)/C(=C/c2cccs2)SC1=S (stereo not given)	-9.5%
O=C(c1ccc(CS(=O)c2ccccc2Cl)o1)N1CCCCCC1 (stereo not given)	-6.6%
CC(C)c1ccc(N(CC(=O)NCc2cccnc2)S(=O)(=O)c2ccccc2)cc1	-2.3%
CCOCCCn1c(SCC(=O)/C(C#N)=C(\C)N)nc2ccccc2c1=O	12.7%
CN(C)/N=C/c1ccc([N+](=O)[O-])cc1[N+](=O)[O-]	3.3%
COCCNC(=O)/C(C#N)=C\c1ccc(CNC(=O)C(=O)Nc2ccc(C)c(C)c2)o1	6.8%
COc1cccc(NC(=O)Cn2c3ccc(F)cc3c3nc4n(c(=O)c32)CCCS4)c1	-3.3%
CCOC(=O)N1CCN(Cc2nc(-c3ccc(Cl)cc3)no2)CC1	8.2%
CCOC(=O)c1ccc(NC(=O)CN2CCN(C(=O)C3CCCO3)CC2)cc1 (stereo not given)	-19.2%
Cc1cc(NC(=O)c2cc(C(C)C)on2)nn1Cc1ccc(Cl)cc1	7.5%

Random excerpt: two compounds from above, in no set order.
SMILES	N370S GC mod
N/C(Cc1ccc([N+](=O)[O-])cc1)=N\OC(=O)c1ccco1	3.4%
COc1cc(OC)c(C2SCCCS2)cc1OC	1.5%

Only part of the results is shown; most or all hits stand in other tables.
